Source: PubChem (Fisher Drug Discovery Resource Center)
NPYLR7 agonist: mosquito NPYLR7 agonism; HEK293T NPYLR7/Galpha15, GCaMP6s calcium fluorescence; activation, % at 10 µM; 0.15% of 270,000 active; AID 1259423; in the data active means activation above about 40%;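 further: 0% = vehicle and 100% = reference agonist at the receptor; some compounds past the cut are filed as inactive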
NPYLR7 agonist max-min: also measured in NPYLR7 agonist; calls as there; activation, %; measured here: Max-Min RFU normalised activation; some inactives read as strong as hits;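 span of the calcium signal over five minutes; 0% = vehicle and 100% = native peptide agonist; compound fluorescence can raise it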
Starred values were filed as active, the others as inactive. These rows are one share of the data; rates above refer to the full screens.

Structure | NPYLR7 agonist | NPYLR7 agonist max-min
Cc1ccc(N2C(=O)NC(NC(=O)c3ccc(F)cc3)(C(F)(F)F)C2=O)cc1C (stereo not given) | -17 | -23
COc1cc(S(=O)(=O)NCCCN2CCOCC2)c(OC)cc1Cl | 6 | 3
CSc1cccc(N2CC(C(=O)NC3CCCCC3C)CC2=O)c1 (stereo not given) | 5 | 4
Cc1ccc(S(=O)(=O)N2CCC(NC(=O)CNC(=O)c3ccc(C(C)(C)C)cc3)CC2)cc1 | 9 | 9
CNc1nc2cnc(Nc3cc(OC)c(OC)c(OC)c3)cc2n1C | 7 | -1
O=C(Nc1cnn(-c2ccccc2F)c1)N1CCOCC1 | -25 | -24
O=C(C=Cc1ccc2c(c1)OCCO2)Nc1ccc(Br)cc1Cl | 8 | 5
CCCCc1ccc(NC(=O)c2cc(=O)c(OCC)co2)cc1 | -1 | 2
Cc1cc(OCc2ccccc2)ccc1NC(=O)N1CC[C@H](O)C1 | 7 | 3
CC1(C(=O)NS(=O)(=O)c2ccc(C#N)cc2)CCN1C(=O)Cc1cccc2ccccc12 (stereo not given) | 8 | 7
COc1cc(C=CC(=O)N2CCCC2c2ccc(OC)cc2OC)cc(OC)c1 (stereo not given) | -2 | 14
Cc1ccc2ncccc2c1CN1CCN(Cc2cccc(F)c2)CC1 | 5 | 4
CC(=O)N1CCc2ccc(S(=O)(=O)Nc3ccsc3)cc21 | -6 | -6
CN1CCN(C(=O)c2cn(C)cc3c(=O)n(-c4ccccc4)nc2-3)CC1 | 11 | 8
Cc1ccc(C)c(-c2csc(NC(=O)/C=C/c3ccccc3)n2)c1 | -6 | -9
COc1ccc2c3c(c(=O)oc2c1)CCC3 | 2 | 1
O=[N+]([O-])c1ccc(N2CCN(CC(O)Cn3c4ccccc4c4ccccc43)CC2)c([N+](=O)[O-])c1 (stereo not given) | 9 | 8
O=C(Nc1cccc(C(F)(F)F)c1)c1ccccc1O | -25 | -31
Cc1cc2nnnn2c2ccccc12 | 3 | 5
O=S(=O)(NC1CC1)c1ccc(F)c(F)c1 | 22 | 15
CC(C)Oc1ccc(C(=O)Oc2coc(CSc3nccn3C)cc2=O)cc1 | -9 | -10
O=C(NC(c1ccc(Cl)cc1)c1ccccn1)C1CCN(Cc2ccc3c(c2)OCO3)CC1 (stereo not given) | 9 | 12
Cc1nn(CC(=O)N2CCc3ccccc32)c(=O)c2c1cnn2-c1ccccc1 | 4 | 1
CCOC(=O)c1nn(-c2ccc(C)cc2)c(=O)cc1OS(=O)(=O)c1ccc(CC)s1 | 9 | 4
Cc1ccc(NC(=O)c2c(-c3ccccc3Cl)noc2C)c([N+](=O)[O-])c1 | -1 | 2
Cn1cnc(S(=O)(=O)N2CC[C@@H](c3ccc4ccccc4c3)[C@H](O)C2)c1 | 1 | 2
COc1ccc(OC)c(Nc2ncnc3sc4c(c23)CCC4)c1 | 2 | 10
N#CC1(NC(=O)CSc2ncnc3sc4c(c23)CCCC4)CCCC1 | 20 | 11
CC(C)Nc1nc(NC(C)C)nc(Oc2ccc(C=O)cc2)n1 | 1 | -1
COc1ccccc1N1CCN(c2ccc(NC(=O)c3ccc4c(c3)OCO4)cc2C(=O)NCCCN(C)C)CC1 | 14 | 22

Next section; it opens with the five that closed the last part.
Structure | NPYLR7 agonist | NPYLR7 agonist max-min
Cn1cnc(S(=O)(=O)N2CC[C@@H](c3ccc4ccccc4c3)[C@H](O)C2)c1 | 1 | 2
COc1ccc(OC)c(Nc2ncnc3sc4c(c23)CCC4)c1 | 2 | 10
N#CC1(NC(=O)CSc2ncnc3sc4c(c23)CCCC4)CCCC1 | 20 | 11
CC(C)Nc1nc(NC(C)C)nc(Oc2ccc(C=O)cc2)n1 | 1 | -1
COc1ccccc1N1CCN(c2ccc(NC(=O)c3ccc4c(c3)OCO4)cc2C(=O)NCCCN(C)C)CC1 | 14 | 22
O=C(NCC(C1CCOC1)N1CCOCC1)c1ccc(Cl)nn1 (stereo not given) | 8 | 6
Cc1ccc(-n2nc(C)c(CCC(=O)NCCCn3ccnc3)c2C)cc1C | 2 | -2
CCS(=O)(=O)N1CCC(CCC(=O)NCCOC)CC1 | 23 | 10
O=C(/C=C/c1cccnc1)NC(c1cccs1)C1CCCC1 (stereo not given) | 7 | 2
O=C(Cc1cc(-c2cccs2)on1)Nc1cccnc1 | 3 | 3
Cc1cc(OCc2cccc(Cl)c2)ccc1N | 5 | 1
Cc1ccsc1CN(Cc1cccc(C(F)(F)F)c1)Cc1nc(C(=O)NCCN2CCOCC2)co1 | 21 | 18
CCOC(=O)CC1C(=O)NCCN1C(=S)NCC1CCCCC1 (stereo not given) | -9 | -15
COCC(=O)N1CCN(c2cc(Oc3ccc(Cl)cc3F)ncn2)CC1 | -10 | -5
Cc1ccc(S(=O)(=O)NNC(=O)C(C)C)c(C)c1 | 7 | 3
Cc1cccc(-c2noc(CN(C)C(=O)c3cnn4cc(C)cnc34)n2)c1 | 2 | -6
C=CCn1cc(CN2CCN(CCS(C)(=O)=O)CC2)c(C)n1 | 26 | 12
CN(C)c1ccc(CNCc2cccc(C#N)c2)cc1F | 3 | 4
COc1ccc(S(=O)(=O)N(Cc2ccc(OS(C)(=O)=O)cc2)Cc2ccco2)cc1 | -8 | -10
COc1ccc(-c2nn(-c3ccccc3)c(OC(C)=O)c2-c2ccc(NC(=O)c3ccccc3Cl)cc2)c(OC)c1 | 1 | 8
Cc1ccc(-c2nnc(SCC(=O)N3CCC(C)CC3)o2)cc1 | 3 | 1
CNC(=O)CCC(=O)N1CC[C@@H](c2ccc3ccccc3c2)[C@H](O)C1 | -2 | -2
COc1cc(OC)cc(C(=O)N2CCC3(CC2)C(=O)N(CC(=O)Nc2ccc(F)cc2)CN3c2ccccc2)c1 | 24 | 19
CC(C(N)=O)n1cc(I)cn1 (stereo not given) | 3 | 1
CCS(=O)(=O)c1ccc2oc(=S)n(CN3CCOCC3)c2c1 | 0 | -3
COCCN(Cc1ccsc1)CC(O)Cc1ccccc1 (stereo not given) | -10 | -10
Cc1cc(CNC(=O)C2CCN(S(=O)(=O)c3ccc4c(c3)OCCO4)CC2)ccc1F | 11 | 12
COCCN1CCN(c2nc(C(=O)NC(C)C)cs2)C1=O | -1 | -1
OCc1ccc(-c2nccn2Cc2cc3ccccc3s2)o1 | -5 | -4
CCc1ccccc1NC(=O)Cn1cnc([N+](=O)[O-])n1 | -9 | -13
CC(Cc1cnccn1)NC(=O)c1cn(C/C=C/c2ccccc2)nn1 (stereo not given) | 17 | 14
CCNC(=O)OC1CN(S(=O)(=O)Cc2ccccc2)CCC(=O)N(C)c2ccccc21 (stereo not given) | 4 | 12
COc1ccc(CNC(=O)CCC2CCCN(C(=O)Cn3cccn3)C2)c(OC)c1 (stereo not given) | 5 | 3
COc1ccc(OC)c(S(=O)(=O)N2CCN(C)CC2)c1 | 4 | 3
CC1(C(=O)NS(=O)(=O)c2ccccc2OC(F)(F)F)CCN1C(=O)c1ccco1 (stereo not given) | -4 | -9

Filtered by structure: those above containing a cyano group (3)
Structure | NPYLR7 agonist | NPYLR7 agonist max-min
CC1(C(=O)NS(=O)(=O)c2ccc(C#N)cc2)CCN1C(=O)Cc1cccc2ccccc12 (stereo not given) | 8 | 7
N#CC1(NC(=O)CSc2ncnc3sc4c(c23)CCCC4)CCCC1 | 20 | 11
CN(C)c1ccc(CNCc2cccc(C#N)c2)cc1F | 3 | 4

Compound profiles, as listed above. Values in the order: NPYLR7 agonist | NPYLR7 agonist max-min
`Cc1cccc(-c2noc(CN(C)C(=O)c3cnn4cc(C)cnc34)n2)c1` as listed: 2 | -6
`CCNC(=O)OC1CN(S(=O)(=O)Cc2ccccc2)CCC(=O)N(C)c2ccccc21` (stereo not given) as listed: 4 | 12
`O=C(Cc1cc(-c2cccs2)on1)Nc1cccnc1` as listed: 3 | 3
`CCOC(=O)CC1C(=O)NCCN1C(=S)NCC1CCCCC1` (stereo not given) as listed: -9 | -15
`COCCN(Cc1ccsc1)CC(O)Cc1ccccc1` (stereo not given) as listed: -10 | -10

(continued)
mol	NPYLR7 agonist	NPYLR7 agonist max-min
Cc1ccccc1S(=O)(=O)NC(=O)c1ccc(S(C)(=O)=O)cc1	14	8
Cc1cc(C(F)(F)F)nc(CCn2ccnc2C2CCOC2)n1 (stereo not given)	-3	-8
COc1ccc(CNC(=O)c2cccc(S(=O)(=O)N3CC4(C)CC3CC(C)(C)C4)c2)cn1 (stereo not given)	-12	-12
COc1cccc(-c2nnc(NC(=O)/C=C/c3ccccc3)s2)c1	-5	-6
C=CCNC(=O)N1CCOC(CCc2ccccc2)C1 (stereo not given)	17	7
O=C1/C(=C/c2ccc([N+](=O)[O-])cc2)C=C(c2ccccc2)N1c1cccc2ccccc12	-2	7
O=C(NCc1cccnc1)c1cc(N2CC[C@@H]3CCCC[C@H]3C2)ccn1	-2	-2
CC(O)CNc1nc(N2CCOCC2)c2cnn(C)c2n1 (stereo not given)	1	0
COc1ccc2oc(=N)c(C(=O)Nc3ccc(F)cc3)cc2c1	-3	-9
CCOC(=O)c1sc(N2C(=O)C(=O)C(=C(O)c3ccccc3)C2c2ccc(O)cc2)nc1C (stereo not given)	2	4
CCOC(=O)c1c(SCc2ccccn2)nc(=O)[nH]c1C	3	4
O[C@@H]1CN(CC2CCCCC2)CC[C@H]1N1CCN(c2ccccc2F)CC1	6	2
COc1ccc(CCN(C)S(=O)(=O)c2ccc(OC)c(N3CCN(C(=O)Cc4ccccc4)CC3)c2)cc1OC	21	14
COc1cc2c(cc1OC)CN(S(=O)(=O)c1ccc(OC)c(N3CCN(S(=O)(=O)c4ccccc4Cl)CC3)c1)CC2	3	18
CCN(CC1CCCN(CCc2cccc(OC)c2)C1)C(=O)CCn1cncn1 (stereo not given)	3	3
COc1cn2c(cc1=O)C(=O)N(CCNC(=O)c1ccccc1SC)CC2	8	2
CCCn1c(-n2nc(CC)cc2CC)nc2c1c(=O)n(C)c(=O)n2C	3	2
CC1(c2cc(F)ccc2F)NC(=O)N(Cc2ccc(C#N)cc2F)C1=O (stereo not given)	12	0
CC(NC(=O)Nc1ccncc1)C(O)c1ccc(Br)cc1 (stereo not given)	9	7
Cc1cccc(-c2nc3nc(C)cc(C)n3c2NC2CCCCC2)c1	-4	-3
Cc1nnc(C(C)NC(=O)Nc2ccc(C(F)(F)F)cc2)o1 (stereo not given)	-3	-5
CCn1nnc2c(=O)n(CC(=O)N3CCN(c4ccccc4)CC3)cnc21	-1	27
Cc1cc2nnc(SC(C(=O)NC(N)=O)C(C)C)n2c(C)n1 (stereo not given)	0	13
COCCNc1cc(-c2ncccc2Cl)c2cc[nH]c2n1	2	-3
COc1ccccc1C=C/C=N\NC(=O)c1cc(-c2ccc(Cl)s2)[nH]n1	1	0
COCCNC(=O)c1ccc(OC2CCN(C(C)CSC)CC2)c(Cl)c1 (stereo not given)	18	9
COCCCN(C(=O)c1ccccc1C)C(C)c1nc2ccccc2c(=O)n1-c1ccc(C)cc1C (stereo not given)	-11	-2
CN(Cc1ccc(-c2nc(-c3cccnc3)cc(=O)[nH]2)cc1)Cc1ccco1	-1	-2
Cc1sc2nc(CCc3ccccc3)nc(N3CCN(C(=O)C(C)(C)CCl)CC3)c2c1C	-14	-6
FC(F)(F)c1cccc2c(N3CC(c4ccncc4)C3)ccnc12	-1	-4
COCC(=O)Nc1cccc(-c2ccc3c(c2)OCO3)c1	-1	-1
Cc1ccccc1/C=C1/SC(=Nc2ccccc2)NC1=O	-8	-13
NC(Cc1ccc(Cl)cc1)c1csc(Nc2ccc(-c3ccccc3)nn2)n1 (stereo not given)	-6	-10
COC(=O)c1ccc(CNC(=O)NCCc2ccco2)cc1	3	-2
Cc1ccc(N(CCCN2C(=O)c3cccc4cccc(c34)C2=O)C(=O)c2cccs2)cc1	-2	-13
Cc1ccc(-c2csc3nc(CN(CC(C)C)CC(O)c4ccccc4)[nH]c(=O)c23)cc1C (stereo not given)	-6	-3
O=C(O)Cc1ccc(CN2CC3(CCNCC3)CC2C(=O)O)cc1 (stereo not given)	13	10
O=C1c2ccccc2C(=O)N1CN(Cc1ccccc1)CN1C(=O)c2ccccc2C1=O	6	4
COc1cn(CC(=O)Nc2ccccc2)c(CSc2nnnn2C)cc1=O	-3	-11
CCN(Cc1ccc(OC)c(OC)c1)S(=O)(=O)c1ccc2c(c1)CCCC2	3	0
CNC(=O)CSc1nnc(N2CCN(C(=O)CCc3ccc(OC)cc3)CC2)s1	-10	-16
c1cncc(-c2ncc3c(n2)CCCC3NCc2cc3ccccc3o2)c1 (stereo not given)	-1	-2
CC(c1ccon1)N(C)C(=O)CC1(c2ccc(-c3ccccc3)cc2)CC(=O)N(C)C1=O (stereo not given)	0	-6
COc1c(NS(=O)(=O)c2cc(F)ccc2Cl)c(C)nn1C	7	2
CCc1nc2ccc(C(=O)NCCN3CCCC3)cn2c1N(C)C(=O)c1cccc(OC)c1	14	13
CCc1nc2n(n1)C(=O)C(C(c1cccc(C)c1)N1CCCC1)S2 (stereo not given)	-1	21
O=C(NCCSCc1ccccc1F)c1cc(Cl)c2c(c1)OCCO2	9	2
Fc1ccc(C2CC(c3ccccc3)=Nc3nnnn32)cc1 (stereo not given)	0	-1
COCCNC(=O)Cn1cc(OC)c(=O)cc1CSc1nc(C)cc(C)n1	-2	-8
O=C(NCCCS(=O)(=O)N1CCN(c2ccccc2)CC1)c1cnccn1	-2	-4
O=C1OC2(CCCC2)OC(=O)C1=Cc1cc(Cl)c(O)c(Cl)c1	5	8
O=C(NCc1ccccc1)c1ccc2c(=O)n3c(nc2c1)CCC3	-2	1
Cc1ccc(-n2nnc(C(=O)OCc3nc(-c4ccccc4)oc3C)c2C)cc1	9	11
Cc1nccc(N2CCC(N3CCCC(C(=O)NCc4cccnc4)C3)CC2)n1 (stereo not given)	0	-2
CS(=O)(=O)c1ccc(CN2CCNC(C(=O)NCc3ccccn3)C2)cc1 (stereo not given)	21	3
C#CC(C)(C)NC(=O)Cc1csc(SCC)n1	6	6
COc1ccc(-c2cn3nc(SCC(=O)N4CCN(c5ccccc5)CC4)ccc3n2)cc1	5	3
